# High-throughput results as filed in PubChem.
# HCMV NEC inh = inhibitors of HCMV UL50-UL53 nuclear egress complex interaction | AID 1918969 | HTRF UL50-UL53 interaction, normalized percent inhibition | hit rate 0.15% among 190,000 | inhibition, % (concentration not given with the values);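 active = both replicates at 50% or more, plus weaker picks with an unusually low signal ratio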;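 note: stock transfer was 100 nL into about 20 µL; 0% = negative control wells and 100% = wells with untagged competitor protein; inactives centre near -12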
# GIV-Gai inh = GIV-Galpha-i interaction inhibition; P08753; Galpha-i3/FITC-GIV peptide fluorescence polarization, 90 min; hits give low values; scaled: aluminum fluoride 0%, vehicle 100%; percent of control (FP), % (concentration not given with the values); hit rate 0.42% among 210,000; AID 1224905;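 active = replicate mean at 85% of control or lower, very high polarization wells dropped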;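 note: wells of about 15 µL received 100 nL stock; the first replicate is given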
# Target sequence (P08753 whole entry, looked up): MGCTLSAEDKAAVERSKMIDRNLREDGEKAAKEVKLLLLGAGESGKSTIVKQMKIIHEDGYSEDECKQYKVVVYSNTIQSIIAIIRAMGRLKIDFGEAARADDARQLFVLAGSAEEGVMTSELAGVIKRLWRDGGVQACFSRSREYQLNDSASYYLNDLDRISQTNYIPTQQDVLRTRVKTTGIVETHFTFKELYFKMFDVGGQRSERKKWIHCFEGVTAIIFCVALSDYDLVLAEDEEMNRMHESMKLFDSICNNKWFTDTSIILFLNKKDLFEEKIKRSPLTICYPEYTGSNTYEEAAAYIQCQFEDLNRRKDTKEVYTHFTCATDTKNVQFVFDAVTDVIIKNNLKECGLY
# Sa growth inh = S. aureus growth inhibition; relative growth, % (no concentration beside the values); S. aureus RN4220 growth, OD600, 20 h, 42 °C; hits give low values; AID 720641; hit rate 0.53% among 170,000;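 active = growth at 42 °C up to 50% and 20 or more points under that at 30 °C, or under 10% at both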;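 note: 300 nL library stock went into each well; scaled to the means of positive and negative controls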
# Sa growth inh second temp = also measured in Sa growth inh; calls as there; relative growth, %; measured here: growth at 30 °C;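 optical density after 20 h as mean of two plates; 100% = untreated growth and lower means inhibition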
# Active calls of the source: *; . = not tested or not shown.
# Value order: HCMV NEC inh, GIV-Gai inh, Sa growth inh, Sa growth inh second temp
- CCOC(=O)/C(C#N)=C1\Nc2ccccc2C1=O
→ ., 107.1, 80.4, 56.0
- Cn1c(=O)n(-c2ccc3c(c2)OCO3)c2nc(-c3ccc(Cl)cc3)nc(C(N)=O)c21
→ -15.2, 105.3, 109.4, 90.8
- CSc1cccc(NS(=O)(=O)c2ccccc2)c1
→ -20.8, ., 112.4, 91.9
- Cc1nc2c3ccccc3n3c(CCCC(=O)NCc4ccccn4)nnc3n2n1
→ -1.2, 108.3, 92.5, 88.8
- COc1ccc2c(C)cc(SCc3nc4ccccc4c(=O)n3CC#N)nc2c1
→ 2.4, ., 102.4, 96.8
- CSc1nn(Cc2ccc(Cl)cc2)c(N(C(C)=O)C(C)=O)c1S(=O)(=O)c1ccccc1
→ -10.6, 102.6, 98.1, 72.7
- CCc1cccc(C)c1NC(C)=O
→ -3.8, ., 100.2, 89.3
- COc1ccc(NC(=O)Cn2cnc3sc(C)c(S(=O)(=O)N4CCN(c5ccccc5OC)CC4)c3c2=O)cc1OC
→ -25.5, 107.7, ., .
- Cc1nc2ccccc2c(=O)n1Cc1noc(-c2cc3ccccc3[nH]2)n1
→ -36.8, 105.4, ., .
- Cc1cc(CNC(=O)NCC2CCCO2)c(C)n1-c1cccc(Cl)c1 (stereo not given)
→ 10.7, 102.5, ., .
- CN(C)C(=O)COC(=O)c1cccc(CN2C(=O)c3ccccc3C2=O)c1
→ -35.7, ., 99.2, 96.1
- Cc1cc(C)c(/C=C/c2onc(C)c2S(=O)(=O)N2CCC(C(=O)Nc3ccc(Cl)c(C(F)(F)F)c3)CC2)c(C)c1
→ ., 101.6, 96.1, 88.5
- CC(C)(C)OC(=O)N/N=C1\CCCCc2ccccc21
→ -12.1, ., 83.8, 96.0
- COC(=O)c1cc(NC(=O)c2ccccc2)ccc1N1CCOCC1
→ -6.5, 99.6, 99.4, 91.2
- CCc1ccc2c(c1)NC(c1ccc(F)cc1)=NC(c1ccncc1)=N2
→ 3.8, 98.0, 91.0, 88.3

# Value order: HCMV NEC inh, GIV-Gai inh, Sa growth inh, Sa growth inh second temp
- O=c1/c(=C\c2cn(Cc3ccc(Cl)cc3Cl)nc2-c2ccccc2)sc2nc3ccccc3n12
→ -20.1, 108.7, ., .
- Cc1[nH]c2ccc(C(C)C)cc2c1CC(=O)O
→ -8.8, 109.8, 104.9, 69.8
- Cc1ccc(NC(=O)N(C)Cc2cc(=O)[nH]c3ccccc23)cc1
→ 30.6, 95.2, ., .
- CCCCS(=O)c1sc2nc(C)cc(C)c2c1N (stereo not given)
→ -56.8, 100.6, 81.2, 78.1
- Cc1cc(Cl)ccc1NC(=O)c1cc(S(=O)(=O)N2CCOCC2)cn1C
→ ., 108.5, 111.3, 100.8
- CN(C)C1(CNC(=O)c2ccc3c(c2)SC2=NS(=O)(=O)CCN23)CCCCC1
→ 5.1, ., 105.0, 90.1
- COc1ccccc1NC(=O)N1CCN2C(=O)c3ccccc3C12c1ccccc1 (stereo not given)
→ -10.7, 100.3, 121.1, 85.8
- Cn1c(=O)[nH]c2cc(-c3noc(-c4ccc(C#N)cc4)n3)ccc21
→ ., 102.4, 107.7, 86.2
- CCCCN1C(=O)c2ccc(C(=O)Nc3c(N)n(CCCC)c(=O)n(C)c3=O)cc2C1=O
→ -43.6, ., 90.7, 92.3
- CC(Sc1nc2cc(Cl)ccc2c(=O)n1Cc1ccco1)C(=O)N1CCc2ccccc2C1 (stereo not given)
→ -0.2, ., 94.9, 101.4
- COc1cc(C(=O)N2CCN(Cc3c[nH]c4ccccc34)CC2)cc(OC)c1OC
→ 0.3, 107.2, 90.5, 83.5
- COc1cc(NC(=O)CCCOc2cc(=O)n(C)c3ccccc23)cc(OC)c1OC
→ 5.4, 104.9, 93.3, 89.3
- COc1ccccc1CNc1ncnc2onc(-c3ccc(Cl)cc3)c12
→ -28.1, 101.9, 106.0, 89.6
- COc1cccc(-c2nc(CS(=O)CC(=O)N3CCN(c4cccc(C(F)(F)F)c4)CC3)c(C)o2)c1 (stereo not given)
→ ., 102.0, 62.6, 34.4
- N#CC1C(C#N)N2CCCN2C1c1ccc(Cl)cc1 (stereo not given)
→ 19.8, 103.7, 91.8, 100.1

# Value order: HCMV NEC inh, GIV-Gai inh, Sa growth inh, Sa growth inh second temp
- CCCn1c(SCc2cc(=O)oc3ccc4ccccc4c23)n[nH]c1=O
→ -96.1, ., 92.7, 84.0
- CCCCS(=O)(=O)Nc1ccc(C(=O)OC(C)C)cc1
→ -36.4, 106.5, 111.8, 96.5
- CCCN(CCC)C(=O)c1cn(C)c2ccc(S(=O)(=O)N3CCC(C)CC3)cc2c1=O
→ -32.3, 100.9, ., .
- COc1ccc(C2CC(=O)C3=C(C2)NC(C)=C(C(=O)OC2CCCC2)C3c2ccc([N+](=O)[O-])cc2)cc1OC (stereo not given)
→ -14.6, 99.4, ., .
- O=C(Cn1nnc2sc3c(c2c1=O)CCCC3)NC1CCCCC1
→ -21.3, 106.3, 90.2, 84.8
- COc1ccc(CC(=O)n2nc(N)c3cc4ccc(OC)cc4nc32)cc1
→ -9.7, 102.7, 98.1, 82.1
- O=C(CSc1ncc2c(n1)-c1ccccc1N(Cc1ccc(Cl)cc1)S2(=O)=O)c1ccccc1
→ ., 108.6, 113.0, 98.0
- O=C(NC1CCCC1)c1ccc2c(c1)N(Cc1ccccc1)C(=O)CS2
→ ., 97.1, 103.9, 81.0
- CN1C=NC2C1C(=O)N(CCn1c(=O)c3c(ncn3C)n(C)c1=O)C(=O)N2C (stereo not given)
→ 5.9, 101.1, 96.2, 103.2
- COc1ccc(C2CC(=O)c3cnc(NCCN4CCOCC4)nc3C2)cc1 (stereo not given)
→ -0.1, 104.1, 90.2, 100.4
- CCOC(=O)c1cc2n(n1)CC(C)(C(=O)NCCC(C)C)N(Cc1ccc(C)cc1)C2=O (stereo not given)
→ -23.1, 96.9, ., .
- CS(=O)(=O)c1ccccc1C(=O)N1CCN(Cc2ccccc2)CC1
→ -14.4, ., 93.0, 95.2
- CCc1ccccc1NC(=O)C1CCCN1S(=O)(=O)c1ccc2c(c1)n(C)c(=O)c(=O)n2C (stereo not given)
→ -13.4, 107.3, 99.3, 88.8
- O=C(Cc1ccc(Cl)cc1)Nc1ccc2oc(-c3ccc(F)cc3)nc2c1
→ -68.2, 108.5, 96.7, 83.7
- CCOc1cc(C(F)(F)F)c(C(=O)N(C)Cc2c(OC)cccc2OC)cn1
→ -28.6, 110.1, 90.6, 91.5

# Value order: HCMV NEC inh, GIV-Gai inh, Sa growth inh, Sa growth inh second temp
- COc1ccc(C2CC(=O)N(Cc3ccccc3)C(=O)C2)cc1OC
→ -29.2, 101.6, ., .
- CCN(CC)C(=O)Sc1nc2cc(Cl)ccc2s1
→ -3.9, 100.5, 126.8, 69.6
- Cc1noc(C)c1COC(=O)/C(=C/c1cccs1)c1cccs1
→ -12.2, ., 90.7, 80.0
- CC(OC(=O)c1ccco1)C(=O)Nc1ccc(Cl)cc1 (stereo not given)
→ -24.7, ., 100.4, 83.4
- O=c1[nH]c2ccccc2c(O)c1C=Nc1ccccc1
→ 6.6, 103.7, 99.7, 97.3
- CCOc1ccc(/C=C/c2nc(C#N)c(N(C)C)o2)cc1
→ -14.0, 102.1, 98.6, 87.1
- N#CC1=C(N)OC2=C(C(=O)CCC2)C12C(=O)N(C(=O)c1ccccc1Cl)c1ccccc12 (stereo not given)
→ -25.7, 97.2, ., .

# Hits appear at their usual frequency. About 0.83% of those tested had a hit in this group.
